Screens (PubChem BioAssay)
NPYLR7 ag = agonists of mosquito NPYLR7 receptor, primary screen, cell-based, Aedes aegypti, calcium fluorescence, mosquito biting behavior. HEK293T NPYLR7/Galpha15, GCaMP6s calcium fluorescence. activation, % at 10 µM. 270,000 tested, 0.15% active. AID 1259423, 2018; in the data active = activation above about 40%;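 note: 0% = vehicle and 100% = reference agonist at the receptor; some compounds past the cut are filed as inactive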
NPYLR7 ag max-min = second read-out of NPYLR7 ag, no call of its own (marks repeat the call); activation, %; measured here: Max-Min RFU normalised activation; some inactives read as strong as hits;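 span of the calcium signal over five minutes; 0% = vehicle and 100% = native peptide agonist; compound fluorescence can raise it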
Starred values were filed as active, the others as inactive; & = joins results of further samples. These rows are one share of the data; the hit share may differ from the screen's.

The opening four compounds, ahead of the listing:
nr | compound | NPYLR7 ag | NPYLR7 ag max-min
1 | Cc1ccc(S(=O)(=O)n2cc(-c3ccc(F)c(C)c3)c(N)n2)cc1 | 3 | -1
2 | c1ccc(-c2nc(Nc3ccc4c(c3)OCCO4)c3ccccc3n2)cc1 | 4 | 0
3 | Cc1ccc(-c2nnc(NCCCN(C)C)c3ccccc23)cc1 | -1 | 2
4 | CS(=O)(=O)Cc1cc(F)ccc1NC(=O)c1cscn1 | 0 | -1

Main list, from the first entry:
nr | compound | NPYLR7 ag | NPYLR7 ag max-min
1 | Cc1ccc(S(=O)(=O)n2cc(-c3ccc(F)c(C)c3)c(N)n2)cc1 | 3 | -1
2 | c1ccc(-c2nc(Nc3ccc4c(c3)OCCO4)c3ccccc3n2)cc1 | 4 | 0
3 | Cc1ccc(-c2nnc(NCCCN(C)C)c3ccccc23)cc1 | -1 | 2
4 | CS(=O)(=O)Cc1cc(F)ccc1NC(=O)c1cscn1 | 0 | -1
5 | CCc1nc2ccc(C(=O)NCc3ccc4c(c3)OCO4)cn2c1N(C)C(=O)C1CCCCC1 | -3 | -11
6 | COCCNC(=O)c1sc(=O)n(Cc2ccccc2OC)c1C | -5 | -6
7 | CCN(c1ccc(F)cc1)S(=O)(=O)c1ccc(NC(C)=O)cc1 | 6 | 1
8 | CC(C)OC(=O)CCNC(=O)NCCc1ccc(Cl)cc1 | 0 | 0
9 | COc1cc(S(=O)(=O)Nc2ccccn2)ccc1Br | -2 | -2
10 | CC(Sc1nnc2n(C)c(=O)c3ccccc3n12)c1ccc(F)cc1 (stereo not drawn) | 7 | 4
11 | C#CCSc1nc2ccccc2n1C(=O)/C=C/c1ccc(F)cc1 | -1 | -12
12 | CCN(CC)Cc1cnc2c(C(=O)Nc3ccc(OC)cc3C)cnn2c1 | 11&0 | 9&-1
13 | CC(=O)Nc1ccc(CC(=O)OCc2ccc(F)cc2)cc1 | 19 | 17
14 | Fc1cccc(F)c1CN1CCCn2cccc2C1c1ccc(Cl)cc1 (stereo not drawn) | 20 | 22
15 | CC(C)N(Cc1c(-c2ccccc2)noc1N(C)C(C)C)C(=O)c1ccc(Cl)cc1 | 6 | 13
16 | O=S(=O)(Cc1ccc(Cl)cc1Cl)c1nc2ncccc2[nH]1 | 0 | -4
17 | Cc1cc(C)cc(N2C(=O)CSC2c2ccc(NC(=O)CCl)cc2)c1 (stereo not drawn) | -10 | 0
18 | O=C(N[C@@H]1CCCCC1NC(=O)C1CCCN(S(=O)(=O)c2ccc(Br)cc2)C1)c1ccccc1 (stereo partly drawn) | 22 | 20
19 | CC(C)CNC(=O)C(=O)N1CCCn2nc(C(=O)Nc3ccccc3)cc2C1 | 0 | 10
20 | Cc1[nH]n(-c2cccc(Cl)c2)c(=O)c1C1=C(N2CCOCC2)C(=O)N(C2CCCCC2)C1=O | -9 | -3

Full records, looked up by structure. Order of values: NPYLR7 ag, NPYLR7 ag max-min
Entry for `O=S(=O)(Cc1ccc(Cl)cc1Cl)c1nc2ncccc2[nH]1` → 0, -4
Entry for `CCc1nc2ccc(C(=O)NCc3ccc4c(c3)OCO4)cn2c1N(C)C(=O)C1CCCCC1` → -3, -11

Continuation:
nr | compound | NPYLR7 ag | NPYLR7 ag max-min
21 | O=C(C1Cc2ccccc2CN1S(=O)(=O)c1ccc2ccccc2c1)N1CCCC1 (stereo not drawn) | 1 | 0
22 | Cc1cc(C)cc(N2C(=O)CSC2c2cccc(NC(=O)c3ccc(Br)cc3)c2)c1 (stereo not drawn) | 16 | 17
23 | Cc1n[nH]c(C)c1CCN(C)C(=O)CC(c1ccccc1)c1ccccc1F (stereo not drawn) | 6 | -7
24 | Cc1noc(CN(C)Cc2cc3cc4c(cc3[nH]c2=O)CCC4)n1 | 6 | 6
25 | Cc1cc(O)c(C(c2ccncc2)N2CCN(c3ccc(F)cc3)CC2)c(=O)n1Cc1ccccc1 (stereo not drawn) | 5 | 2
26 | CCC(=O)N(CC)c1cc(C)ccc1O | 2 | 8
27 | COc1ccc(CC2(CO)CCN(c3ncnc4c3CCC4)CC2)cc1 | 6 | 0
28 | CCSc1nnc(NC(=O)CSc2nnc(CNC(=O)c3ccco3)n2-c2ccc(Cl)c(Cl)c2)s1 | -6 | -4
29 | C/C=C/C(=O)N1CCC(n2c(=O)oc3ccc(F)cc32)CC1 | 5 | 9
30 | CC1CCCCN1C(=S)NCc1ccco1 (stereo not drawn) | 1 | 0
31 | CCOC(=O)c1[nH]c(C)c(C(=O)O)c1C | -2&3 | -3&0
32 | Cc1nn(C)c(C)c1CN(C(=O)c1cc(COc2cncc(Cl)c2)on1)C1CC1 | 9 | -1
33 | CCCSc1ncccc1C(=O)N(CCOC)Cc1nc2cc(Cl)ccc2o1 | -4 | -11
34 | CCOC(=O)N1CCC(Nc2nc(-c3ccc(F)cc3F)c(C)s2)CC1 | 13 | 10
35 | COCC(=O)Nc1cc(C(=O)N(C)c2ccccc2)ccc1Cl | 1 | 44
36 | O=C(OCc1ccc(F)cc1)C(c1ccccc1)N1CCC(O)CC1 (stereo not drawn) | -1 | 0
37 | COc1cc(Cn2nc(-c3cccs3)c3sc(N4CCOCC4)nc3c2=O)cc(OC)c1 | -2 | -7
38 | CCCCSc1nnc2c(n1)OC(C1CC=C(C)CC1C)Nc1ccccc1-2 (stereo not drawn) | -6 | -7
39 | CC1(Cc2ccc(F)c(Cl)c2)C(=O)Nc2ccc(-c3cccc(C(F)(F)F)c3)cc21 (stereo not drawn) | -2 | 6
40 | COC(=O)C1CCCc2c1ccn2Cc1cc(C)on1 (stereo not drawn) | 17 | 10
41 | CCc1nnc(NC(=O)CCn2c(=O)n(CC)c3ccccc32)s1 | -14 | -13
42 | CSc1nc2c(c(=O)n1-c1cc(C)cc(C)c1)SC(C)C2 (stereo not drawn) | -3 | -3
43 | O=S(=O)(c1ccccc1)c1ccc(Cl)c(Cl)c1 | -1 | -1
44 | CC(C)Cc1cc(C(=O)NCC(C)Oc2cccnc2)n(C)n1 (stereo not drawn) | 6 | 5
45 | Cc1cc(=O)[nH]c(NN=C2c3ccccc3-c3ccccc32)n1 | 4 | 4
46 | O=C(NCCn1nc(-c2ccco2)ccc1=O)C1(c2cccs2)CCCC1 | 2 | 4
47 | CCOC(=O)N1CCN(c2nc(Cc3cccc(OC)c3)ns2)CC1 | -15 | -4
48 | O=C(Nc1ccc(Cl)cn1)c1nn2c(C(F)(F)F)cc(-c3ccc(Br)cc3)nc2c1Cl | -13 | -14
49 | O=C(CN(Cc1ccco1)C(=O)COCc1ccccc1)Nc1cc(-c2ccccc2)nn1-c1ccc(F)cc1 | -2 | 4
50 | O=[N+]([O-])c1ccc2c(c1)[nH]c(=S)n2-c1ccc(F)cc1 | 0 | -3
51 | O=C(NOC1CCCCO1)c1ccccc1Oc1cccc(Br)c1 (stereo not drawn) | 0 | 15
52 | COc1cccc(N(C)C(=O)/C=C/c2ccc(F)cc2)n1 | 1 | 0
53 | CN(CC(=O)NCc1cc(F)cc(F)c1)c1ccc(Cl)nn1 | 6&-5 | 2&-5
54 | O=C(NCc1ccccn1)Nc1ccn(CC(F)F)n1 | 8 | 6
55 | Cc1ccc(F)c(S(=O)(=O)NC(=O)C2(C)CCN2C(=O)c2ccccc2CCc2ccccc2)c1 (stereo not drawn) | 3 | 0
56 | CS(=O)(=O)c1c(F)cc(NC(=O)c2ccccc2Cl)cc1F | -3 | -4
57 | CO[C@H]1C[C@@H]2C[C@H](c3ccccn3)OC[C@]2(O)[C@@H]1N1CCN(CC(=O)NC(C)C)CC1 | 5 | 11
58 | CC(=O)c1cccc(OCC(O)CN2CCC(c3ccccc3)C2)c1 (stereo not drawn) | -1 | -1
59 | N#CCCS(=O)(=O)c1nnnn1-c1ccccc1 | 19 | 18
60 | Cn1cnnc1C1CCCN(C(=O)C2CC(=O)N(CCc3ccccc3)C2)C1 (stereo not drawn) | 6 | 3

Records 41 through 47, quoted:
nr | compound | NPYLR7 ag | NPYLR7 ag max-min
41 | CCc1nnc(NC(=O)CCn2c(=O)n(CC)c3ccccc32)s1 | -14 | -13
42 | CSc1nc2c(c(=O)n1-c1cc(C)cc(C)c1)SC(C)C2 (stereo not drawn) | -3 | -3
43 | O=S(=O)(c1ccccc1)c1ccc(Cl)c(Cl)c1 | -1 | -1
44 | CC(C)Cc1cc(C(=O)NCC(C)Oc2cccnc2)n(C)n1 (stereo not drawn) | 6 | 5
45 | Cc1cc(=O)[nH]c(NN=C2c3ccccc3-c3ccccc32)n1 | 4 | 4
46 | O=C(NCCn1nc(-c2ccco2)ccc1=O)C1(c2cccs2)CCCC1 | 2 | 4
47 | CCOC(=O)N1CCN(c2nc(Cc3cccc(OC)c3)ns2)CC1 | -15 | -4

Following part.
# | Structure | NPYLR7 ag | NPYLR7 ag max-min
61 | CC(C)c1nccn1C(C)C(=O)NCCS(=O)(=O)N1CCCC1 (stereo not drawn) | 14 | 11
62 | O=P(CC[P+](CCO)(c1ccccc1)c1ccccc1)(c1ccccc1)c1ccccc1 | 3 | 32
63 | Cc1ccc(F)c(NC2CCCN(C(=O)CC(C)(C)C)C2)c1 (stereo not drawn) | 1 | 9
64 | Cc1cc(C(=O)N2CCN(C3c4ccccc4CCc4ccccc43)CC2)no1 | -3 | 7
65 | CCCc1oncc1C(=O)N1CCCC2(CNC(=O)O2)C1 (stereo not drawn) | 4 | -2
66 | COC(=O)c1cc(-c2ccc(/C=C3\C(=O)N(c4ccc(Br)cc4)N=C3C)o2)ccc1Cl | 11 | 14
67 | Cc1ccc(Nc2nc(N)nc(CSc3nccn3C)n2)c(C)c1 | -1 | -6
68 | CCc1nc(CN(C)Cc2cc(-c3ccncc3)no2)c(C)[nH]1 | -3 | -3
69 | Cc1ncc([N+](=O)[O-])n1CCNC(=O)Nc1cccc(F)c1 | -10 | -16
70 | O=[N+]([O-])c1ccc(Cl)c(S(=O)(=O)N2CCCC2)c1 | 2 | -1
71 | CCN(CCN1CCCCC1)C(=O)C1CCCN1C(N)=O (stereo not drawn) | 9 | 6
72 | CC(=O)N1CCc2ccccc2C1c1ccc(C)cc1 (stereo not drawn) | 20 | 7
73 | CCN(CC)c1ccc(-c2n[nH]c(=S)o2)cc1 | 2 | -3
74 | COc1ccc(OC)c(NC(=O)C2(C)CCN2CCOc2ccccc2)c1 (stereo not drawn) | 5 | -2
75 | COc1cc2c(cc1OC)C1CN(C(=O)c3ccc4c(c3)OCO4)CC(=O)N1CC2 (stereo not drawn) | -11 | -5
76 | CCCN(CCC)C1=CC(=[N+]2CCCC2)CC(C)(C)C1 | 2 | 0
77 | Cc1cc(NCCn2ccnn2)nc(N(C)C)n1 | 10 | -3
78 | CCn1nnc2c(SCC(=O)NCCOC)ncnc21 | -1 | 27
79 | C/C(=N/OCC(=O)NCCCCNC(=O)CO/N=C(/C)c1ccc(C)cc1)c1ccc(C)cc1 | 4 | 3
80 | c1coc(-c2nc3sc4c(NCCN5CCOCC5)ncnc4c3c3c2CCCC3)c1 | 6 | 4
81 | CSc1ccccc1-c1nnc(NC(=O)c2ccc(C#N)cc2)o1 | 8 | 2
82 | CCC(C)N(CC(=O)N(CCc1ccccc1)Cc1ccco1)C(=O)c1cccc(OC)c1 (stereo not drawn) | -10 | -10
83 | Cn1c(CN(CC2CCN(C3CCCC3)CC2)CC2CCCO2)nc2ccccc21 (stereo not drawn) | 13 | 0
84 | O=C(NCCc1csc2nc(-c3ccc(Cl)cc3)nn12)c1ccc(Br)o1 | 0 | 0

Along the list, from the results shown:
NPYLR7 ag max-min, entries 75–83 → -5, 0, -3, 27, 3, 4, 2, -10, 0
NPYLR7 ag, entries 75–83 → -11, 2, 10, -1, 4, 6, 8, -10, 13

Continued.
# | Structure | NPYLR7 ag | NPYLR7 ag max-min
85 | COc1ccc(Cl)cc1NS(=O)(=O)c1cc(C)ccc1OC | 0 | -2
86 | O=C(COc1ccc(F)cc1Br)Nc1ccc(CN2CCOCC2)cc1 | 9 | 5
87 | O=C1C2C3C=CC(C2C(=O)N1CCCO)C1C2C(=O)N(CCCO)C(=O)C2C31 (stereo not drawn) | 3 | 0
88 | Cc1c(C(C)NC(=O)c2ccccn2)cnn1-c1cccc2ccccc12 (stereo not drawn) | 9&13 | 1&9
89 | CCCC(C(=O)NNc1nccc(OC)n1)N1CCN(C(=O)OC(C)(C)C)CC1 (stereo not drawn) | 7 | 9
90 | O=C1c2nc(-c3cccnc3)ccc2CN1C1(C(=O)N[C@@H]2CCCc3ccccc32)CC1 | 0 | -4
91 | COc1cc(CNC(=O)C(C)NC(=O)c2ccccc2Cl)ccn1 (stereo not drawn) | 9 | 5
92 | CCOc1ccc(S(=O)(=O)N2CCC(C(N)=O)CC2)c(OCC)c1 | 2 | 0
93 | CCCCOc1ccccc1C(=O)N1CCCC2(CN(C)C(=O)O2)C1 (stereo not drawn) | 3 | 0
94 | O=C1CCCCC1Sc1nn(-c2ccc(F)cc2)c(=S)s1 (stereo not drawn) | -2 | -6
